TRPML1 inh – human mucolipin-1 channel inhibition. 390,000 compounds, 0.02% hits. TRPML1-inducible cells, Ca2+ dye fluorescence, FDSS; hits give low values; inhibition of EC80 agonist-evoked calcium signal. activity change, negative = inhibition, % (concentration not given with the values). Q9GZU1. AID 624415; in the data active means activity change below about -50%; inconclusive means about -30% to -50%; inactive means above about -30%;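 further: stimulus is agonist 54-4 at its EC80 concentration; on the % scale 0 is the no-effect control and ±100 the full control effect; the text of the record puts the active cut at -80%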
Target sequence (Q9GZU1 whole entry, looked up): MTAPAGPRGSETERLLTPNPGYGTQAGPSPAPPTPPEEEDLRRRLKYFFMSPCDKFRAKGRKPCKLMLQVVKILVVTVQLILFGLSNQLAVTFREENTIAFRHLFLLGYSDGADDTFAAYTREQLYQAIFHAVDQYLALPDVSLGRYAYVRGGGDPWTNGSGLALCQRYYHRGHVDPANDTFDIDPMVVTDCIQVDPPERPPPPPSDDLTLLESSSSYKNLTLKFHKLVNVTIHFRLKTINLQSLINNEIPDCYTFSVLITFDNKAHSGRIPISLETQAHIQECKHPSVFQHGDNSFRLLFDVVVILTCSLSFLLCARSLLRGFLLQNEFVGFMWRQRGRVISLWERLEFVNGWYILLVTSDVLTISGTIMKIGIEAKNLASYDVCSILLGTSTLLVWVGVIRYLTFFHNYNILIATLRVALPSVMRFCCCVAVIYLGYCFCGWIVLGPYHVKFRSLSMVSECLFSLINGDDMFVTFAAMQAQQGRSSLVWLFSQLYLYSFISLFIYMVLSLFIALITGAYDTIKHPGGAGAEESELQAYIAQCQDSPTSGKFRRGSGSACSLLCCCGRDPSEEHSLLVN
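TRPML1-DL cells, Tet-induced overnight (~16 h, 37 °C) at 1,500 cells/well, were loaded with Ca8 no-wash dye plus quencher for 45-90 min at room temperature. Compounds were pinned during FDSS kinetic reading; agonist 54-4 at EC80 (4 uM final) then added.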
D2 PAM – human D2 receptor positive allosteric modulation | P14416 | DiscoveRx D2 beta-arrestin cells, luminescence, 90 min; 100% = 57 uM dopamine signal | potentiation, % (no concentration beside the values) | 360,000 compounds, 0.23% hits | AID 624464; active = potentiation of 50% or more; inconclusive = 30% to 50%; inactive = 30% or less;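 further: compound concentration not given in the record; tested on top of an EC20 dose of dopamine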
Target sequence (P14416 whole entry, looked up): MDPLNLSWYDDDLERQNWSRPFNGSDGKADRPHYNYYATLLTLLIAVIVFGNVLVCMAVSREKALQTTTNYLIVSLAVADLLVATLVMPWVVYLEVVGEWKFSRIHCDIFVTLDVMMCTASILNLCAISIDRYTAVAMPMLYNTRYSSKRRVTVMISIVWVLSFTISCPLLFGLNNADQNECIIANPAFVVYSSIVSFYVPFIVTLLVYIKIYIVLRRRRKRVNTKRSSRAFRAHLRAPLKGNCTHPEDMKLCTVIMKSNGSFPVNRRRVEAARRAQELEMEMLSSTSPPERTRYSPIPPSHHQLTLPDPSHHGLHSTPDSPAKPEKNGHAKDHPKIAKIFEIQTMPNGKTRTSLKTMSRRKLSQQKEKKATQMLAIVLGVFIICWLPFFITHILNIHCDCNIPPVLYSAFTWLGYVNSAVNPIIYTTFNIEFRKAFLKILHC
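D2 cells co-treated with compound plus 50 nM dopamine (EC20) for 90 min at 37 deg C to detect potentiation. Beta-arrestin recruitment was read as enzyme-fragment luminescence after 1 h at ambient temperature. Full response was set by 57 uM dopamine.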
Six1-Eya2 blk – Six1/Eya2 interaction inhibition; AlphaScreen GST-Six1/His-Eya2 binding, biochemical; hits give low values; control for the full effect not named in the record; 360,000 compounds, 0.56% hits; Q15475+O00167; activity change, % (test concentration not listed); in the data active = activity change below about -65%; inconclusive = about -30% to -65%; inactive = above about -30%; further: on the % scale 0 is the no-effect control and ±100 the full control effect
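Compounds are tested against tagged Six1 and Eya2 proteins bridged by glutathione donor and nickel acceptor beads; after a one-hour incubation at 37 °C without light, AlphaScreen emission is recorded.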
PINK1 expr mod – changes PINK1 expression | PINK1 immunofluorescence, high-content cytometry, 24 h | Potency, µM (titrated, usually from 76.6 µM), for the others: at the highest dose activation (PINK1 increase), hits mostly activators | 410,000 compounds, 0.2% hits | AID 624263; active = well fitted activation curve with a large enough effect; inconclusive = small, poorly fitted or top-dose-only effect; inactive = flat fitted curve, though single readings scatter; cell line not stated here;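 further: potency means the concentration at half of the fitted maximal effect; % of control where 0% means no effect; nearly all actives have a fitted effect of over 65% in size; a mitochondrial uncoupler was the plate control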
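Decision-based qHTS: stable cells, 24 h exposure to five compound concentrations, CCCP as control. Fixed cells stained for PINK1 plus nuclear, mitochondrial and cell markers, cytometer read.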
D2 agonist – agonists of human D2 dopamine receptor (beta-arrestin); P14416; DiscoveRx PathHunter D2 beta-arrestin, luminescence, 90 min; 100% = 57 uM dopamine signal; activation, % (test concentration not listed); 360,000 compounds, 0.084% hits; AID 624465; in the data active = activation above about 40%; inconclusive = about 15% to 40%; inactive = below about 15%; further: compound concentration not given in the record; the text of the record calls up to 30% inactive
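Agonist mode: compounds alone added to overnight-plated D2 PathHunter cells for 90 min at 37 C, with 57 uM final dopamine (EC100) defining full response. Beta-arrestin recruitment detected by chemiluminescent reagent, read after 1 h at ambient temperature.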
TRPML1 agonist – human mucolipin-1 channel agonism; 410,000 compounds, 0.12% hits; TRPML1-expressing cells, Ca2+ dye fluorescence, FDSS; host cell line not named in the record; reference of the full effect not given here; activation, % (no concentration beside the values); Q9GZU1; in the data active = activation above about 50%; inconclusive = about 30% to 50%; inactive = below about 30%; further: 0% is about no effect; the text of the record puts the active cut at 80%
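TRPML1-DL cells, Tet-induced overnight (~16 h, 37 degrees C), loaded 45-90 min at room temperature with Ca8 no-wash calcium dye plus quencher. FDSS fluorescence: 10 s baseline, compound pin-transfer, 110 s agonist read, then EC80 54-4 (4uM final) and 110 s antagonist read.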
Numbers without * were called inactive; u = inconclusive; x = no result given; & = joins results of further samples; [ ] = remark or other dose. No enrichment for hits; 1% or so of the library scored in one or more.

SMILES | TRPML1 inh | D2 PAM | Six1-Eya2 blk | PINK1 expr mod | D2 agonist | TRPML1 agonist
Cc1ccc(N(CC(=O)N/N=C/c2ccc(OC3CSC3)cc2)S(=O)(=O)c2ccccc2)cc1 | 0 | -3 | -13 | -7.0%[38.3 µM] | 1.3 | 1.0
O=C(NCCCN1CCOCC1)C(Sc1ccccc1)c1ccccc1 (stereo unspecified) | -8 | -4 | 10 | 2.2% | 1.0 | -0.5
Oc1c(Cl)cc(Cl)cc1/C=N/c1nc(-c2ccc(Cl)cc2)cs1 | -11 | 11 | -29 | 1.8% | u | 6.6
O=C(Nc1nnc(CCN2CCCCC2)s1)c1ccccc1Cl | 26 | -3 | 0 | 1.7% | -2.7 | -0.2
COc1ccc(N(CC(=O)Nc2cc(C)ccc2C)S(=O)(=O)c2c(C)[nH]c(=O)[nH]c2=O)cc1 | -3 | -11 | -9 | 0.3% | -3.9 | -0.2
O=C(NCC1CCN(C(=O)c2c(F)c(F)c(F)c(F)c2F)CC1)c1c(F)c(F)c(F)c(F)c1F | -6 | -14 | 2 | 2.1% | 1.3 | 0.4
COc1cccc(C2SCC(=O)N2c2ccc(Br)cc2)c1OC (stereo unspecified) | 11 | -14 | 0 | 4.2% | 4.4 | -0.2
CCNC(=O)c1cnc2sc(N3CCCCCC3)nn2c1=O | 5 | x | x | 0.6% | x | -0.2
CCC1CCC(N2CCN(c3ccccc3F)CC2)CC1 (stereo unspecified) | -2 | 1 | -1 | 4.0% | 4.6 | 0.7
O=C(N/N=C/c1cccnc1)c1ccccc1[N+](=O)[O-] | -12 | -2 | -2 | 0.5% | 0.0 | 0.1
O=C(Nc1ccc2c(c1)OCO2)O[C@@H]1C[C@H]2CCC(=O)N3CC[C@@H](C1)[C@@H]23 | -11 | -8 | -4 | 0.4% | -2.2 | -0.6&-0.3
COc1ccc(C(=O)C2CCCN(C(=O)Cn3ccc(C)n3)C2)cc1OC (stereo unspecified) | 17 | -7 | 5 | -0.4% | -0.5 | 0.3
CN(C)c1ccc(CC(=O)c2nc3ccccc3s2)cc1 | -21 | -14 | -6 | 8.8% | -13 | 1.7
Cc1oc(-c2ccc(Cl)cc2)nc1CN1CCC(C(=O)NCC2CCCO2)CC1 (stereo unspecified) | 5 | -9 | -1 | -0.7% | -4.4 | -0.5
O=C(Nc1ccc(S(=O)(=O)Nc2ncccn2)cc1)c1ccc(Br)s1 | -8 | -7 | -1 | u | 0.8 | 0.4

An excerpt of these results, with each value named.
SMILES: Cc1ccc(N(CC(=O)N/N=C/c2ccc(OC3CSC3)cc2)S(=O)(=O)c2ccccc2)cc1
  TRPML1 inh = 0
  D2 PAM = -3
  Six1-Eya2 blk = -13
  PINK1 expr mod = -7.0%[38.3 µM]
  D2 agonist = 1.3
  TRPML1 agonist = 1.0
SMILES: O=C(NCCCN1CCOCC1)C(Sc1ccccc1)c1ccccc1 (stereo unspecified)
  TRPML1 inh = -8
  D2 PAM = -4
  Six1-Eya2 blk = 10
  PINK1 expr mod = 2.2%
  D2 agonist = 1.0
  TRPML1 agonist = -0.5
SMILES: Oc1c(Cl)cc(Cl)cc1/C=N/c1nc(-c2ccc(Cl)cc2)cs1
  TRPML1 inh = -11
  D2 PAM = 11
  Six1-Eya2 blk = -29
  PINK1 expr mod = 1.8%
  D2 agonist = u
  TRPML1 agonist = 6.6
SMILES: O=C(Nc1nnc(CCN2CCCCC2)s1)c1ccccc1Cl
  TRPML1 inh = 26
  D2 PAM = -3
  Six1-Eya2 blk = 0
  PINK1 expr mod = 1.7%
  D2 agonist = -2.7
  TRPML1 agonist = -0.2

Remaining list, next part:
SMILES | TRPML1 inh | D2 PAM | Six1-Eya2 blk | PINK1 expr mod | D2 agonist | TRPML1 agonist
C/C(=N\NC(=O)c1cc(C)[nH]n1)c1ccc(-c2ccccc2)cc1 | 8 | -1 | 3 | 4.1% | -0.2 | 0.0
CCOc1ccccc1NC(=O)CSc1n[nH]c(N)n1 | -10 | -12 | 13 | -0.9% | -1.0 | 0.1
COCC(C)n1c(SCC(=O)NNC(=O)c2ccc(F)cc2)nc2ccccc2c1=O (stereo unspecified) | 15 | 7 | 15 | 1.9% | -4.9 | 0.4
Cc1cc(C)c(S(=O)(=O)NCC(c2ccco2)N2CCN(c3ccccc3)CC2)c(C)c1 (stereo unspecified) | 6 | x | x | 1.2% | x | 0.4
Cc1cc(C)c(OCC(=O)NCCCn2nc(C)cc2C)c(C)c1 | -12 | 0 | 8 | -0.2% | -2.2 | -0.3
Cc1ccc(OCC(=O)NC(=S)Nc2ccccn2)c(Br)c1 | -11 | 6 | 8 | 7.5% | -3.4 | 0.7
CCOC(=O)c1cnc2ccc(C(=O)OC)cc2c1NCCN1CCOCC1 | 5 | -1 | 3 | x | 2.7 | -0.8
O=C(NCCc1ccccc1)NC1CCCCC1 | -11 | -8 | 6 | 25%[38.3 µM] | -0.5 | 1.4
C=CCn1c(CCC(O)CCCCC)n[nH]c1=S (stereo unspecified) | -20 | -3 | -9 | 1.7% | -1.0 | 0.1
CCOC(=O)/C(=C/c1c(C)n(C)c2ccc([N+](=O)[O-])cc12)C(C)=O | 9 | -2 | 7 | 17% | -2.3 | -1.0
Cc1nc2ccccc2c(=O)n1NC(=O)c1c(F)cccc1F | x | 2 | 3 | 4.0% | -4.7 | x
O=C(Nc1ccnn1C1CCN(C(=O)c2cccc(Cl)c2)CC1)C1CCOC1 (stereo unspecified) | 2 | -5 | -2 | -2.3% | -2.5 | -0.1
CC(=O)Nc1ccc(N2N=C(C)C(N=Nc3ccccc3)C2=O)cc1 (stereo unspecified) | 13 | 14 | -11 | 5.9% | 12 | -0.7
COc1cc(CNCCN2CCOCC2)ccc1OCc1ccccc1Cl | 9 | -19 | -2 | 1.3% | -4.5 | -0.3
COc1ccccc1NC(=O)N1CCCC1C(=O)NC12CC3CC(CC(C3)C1)C2 (stereo unspecified) | -14 | -22 | 2 | -0.2% | -2.5 | -0.5
COc1ccccc1NC(=O)C(=O)c1cn(CC(=O)N2CCOCC2)c2ccccc12 | -2 | -9 | -8 | 1.0% | -1.1 | -0.1
CC(Cc1ccccc1)N1C(=O)c2cccc([N+](=O)[O-])c2C1=O (stereo unspecified) | -16 | 19 | -12 | 1.8% | 7.5 | 3.0
CCOC(=O)c1ccc(NC(=O)CN2C(=O)COc3ccc(Cl)cc32)cc1 | -6 | x | x | 1.9% | x | 0.0
CC(=O)N1CCN(CCS(=O)(=O)c2cc(Cl)ccc2Cl)CC1 | 13 | 7 | 1 | 1.5% | -3.2 | 2.5
O=C(Nc1cccc(-c2nc3ccccc3o2)c1)c1cccc2c(Cl)cccc12 | 15 | x | x | -0.3% | x | 1.9
CCOc1ccc(Cn2c3ccc(OC)cc3c3nc4ccccc4nc32)cc1OC | -24 | -7 | 13 | 4.8% | -3.9 | 3.8
COC(=O)C(=Cc1ccccc1[N+](=O)[O-])C(=O)OC | 38 | -9 | 2 | -0.8% | -2.0 | 4.6
CCN1CCN(C(=S)NC(C)c2ccccc2)CC1 (stereo unspecified) | 21 | -25 | -18 | -0.1% | -0.5 | -0.3
CC(=O)N1CCc2cc(S(=O)(=O)NCCC(=O)N3CCN(c4ccccn4)CC3)ccc21 | 30 | 3 | 3 | -1.7%[38.3 µM] | -2.3 | 0.2
COc1ccc(-c2cc(C3CCN(Cc4ccc([N+](=O)[O-])cc4)CC3)[nH]n2)cc1 | 16 | -19 | 1 | 2.5% | -4.5 | 1.5
Cn1nnnc1SCC(=O)NCc1ccccc1 | 5 | -7 | -1 | -1.1% | -1.7 | -0.5
CCOc1ccc(OCC)c(NC(=O)C2CCN(S(=O)(=O)c3c(C)noc3C)CC2)c1 | -16 | 0 | 0 | -0.4% | -3.3 | 0.0
Cc1cc(C)cc(-n2cccc2/C=C2/C(=N)N3C(=NC2=O)SN=C3S(C)(=O)=O)c1 | 2 | 1 | -11 | 0.8% | 4.0 | 0.3
Cc1ccc(C)c(NS(=O)(=O)c2ccc(-c3cnc(C4CC4)o3)cc2)c1 | 31 | -10 | -2 | 2.2% | 5.2 | 1.7
N/C(=N\OC(=O)CCCc1ccccc1)c1cccc([N+](=O)[O-])c1 | 11 | -13 | 1 | -2.7% | -2.3 | -0.6
CCN1CCN(S(=O)(=O)c2ccc(Cl)c(C(=O)Oc3ccc(CC(=O)OC)cc3)c2)CC1 | 31 | -2 | -2 | 0.7% | 1.5 | 0.2
CCc1ccccc1NC(=S)N(CCN(C)C)C(C)c1ccco1 (stereo unspecified) | -6 | -16 | -15 | -0.6% | -2.6 | -0.2
COc1cccc(CNC(=O)c2ccccc2NC(=O)C2=C(C)OCCS2)c1 | -23 | -9 | -13 | -0.8% | 0.1 | -1.1
Cc1cccc(OCC(=O)Nc2c(C(=O)Nc3ccc(F)cc3)oc3ccccc23)c1 | -25 | x | x | 1.0% | x | -1.1
O=C(CC(=O)NCc1ccc(Cl)cc1)NCc1ccc(Cl)cc1 | -8 | -2 | -1 | u | 5.8 | 0.4
CC1CC(CC(C)C(=O)NC(=S)Nc2ccc(S(N)(=O)=O)cc2)C(=O)O1 (stereo unspecified) | 50 | 6 | -3 | 0.3% | 2.7 | -0.3
COc1cc(C(=S)N2CCC(C)CC2)ccc1O | 7 | 5 | 1 | -0.7% | -0.9 | 2.2
CCCn1c(SCC(=O)Nc2nnc(C(C)C)s2)nc2c1c(=O)n(C)c(=O)n2C | 11 | -13 | 1 | 2.9%[38.3 µM] | -1.5 | -0.1
CNc1cncc(-c2ccc(OC)c(OC)c2)n1 | 28 | -16 | -11 | -0.3% | -6.4 | -0.4
CCc1cccc(NC(=O)COC(=O)c2cc([N+](=O)[O-])ccc2N2CCOCC2)c1 | -1 | -15 | -16 | 9.8% | -2.4 | 2.2
CC(C)(C)NC(=O)N1CCC(C(=O)O)CC1 | 7 | x | x | 0.5% | x | -0.5
O=C(CN1CCN(Cc2ccccc2F)C1=O)NCc1ccccc1 | 5 | x | x | 5.2% | x | 0.2
O=S(=O)(N/N=C/c1c(F)cccc1Cl)c1ccccc1 | -3 | -34 | 2 | 0.5% | -3.4 | -0.1
CN(C)c1ccc(N2C(=O)CC(Sc3ccccc3C(=O)O)C2=O)cc1 (stereo unspecified) | 4 | -10 | 2 | -0.9% | -1.5 | 0.8
COc1ccc(CCNC(=O)C(C(=O)c2ccccc2)n2ccccc2=O)cc1OC (stereo unspecified) | 6 | 1 | -1 | 0.7% | -4.9 | -0.9
CCCCc1ccc(-c2ccc(Br)cc2O)nc1 | -10 | -4 | 5 | 5.6% | -0.2 | -0.9
CCC(c1ccccc1)c1nnc(NC(=O)c2ccco2)s1 (stereo unspecified) | -10 | -16 | 3 | 0.6% | -5.5 | -1.2
O=C(N/N=C/c1ccc(OC(=O)c2ccccc2)cc1)c1ccc(CN2CCOCC2)cc1 | 11 | 0 | -5 | 2.1% | 2.0 | -0.4
Cc1ccccc1C(=O)c1c[nH]c(C(=O)N2CCN(c3ccccc3F)CC2)c1 | 0 | -8 | -20 | 1.5% | -22 | 3.1

Screens as filed in PubChem.
